# Vaccinia mCherry: qHTS for Stage-Specific Inhibitors of Vaccinia Orthopoxvirus: mCherry Reporter Primary qHTS. Potency, µM (top dose mostly 36.5 µM), for inactives: at the highest dose activity change, negative = inhibition, actives largely listed as inhibitors. Vaccinia virus mCherry reporter infection, fluorescence; about a quarter of the inactives have no number. 0.63% of 310,000 active; active = well fitted inhibition curve with a large enough effect; inconclusive = small, poorly fitted or top-dose-only effect; inactive = no such curve, though single readings can be large or run the other way; tested in A549 cells; also: nearly all actives have a fitted effect of over 35% in size; inactives centre near -10
# Vaccinia Venus: qHTS for Stage-Specific Inhibitors of Vaccinia Orthopoxvirus: Venus Reporter Primary qHTS; Vaccinia virus Venus reporter expression, fluorescence; Potency, µM (doses to about 36.5 µM), without a hit: at the highest dose activity change, negative = inhibition, hits mostly inhibitors; 0.46% of 330,000 active; AID 720580, 2013; active means well fitted inhibition curve with a large enough effect; inconclusive means small, poorly fitted or top-dose-only effect; inactive means no such curve, though single readings can be large or run the other way; tested in A549 cells; also: nearly all actives have a fitted effect of over 30% in size; inactives centre near -10
# Active calls of the source: *; i = inactive; ? = inconclusive; / = no result given; & = joins results of further samples; [ ] = remark or other dose. % is scaled to controls: 0 for no effect and ±100 for the full control effect; potency is read from the fitted curve at half-maximal effect.
SMILES,Vaccinia mCherry,Vaccinia Venus
CC(C)C[C@@H](CNCC(=O)[C@H](Cc1ccccc1)NC(=O)c1[nH]cnc1C(=O)N[C@@H](C)CN)NC(=O)c1nc[nH]c1C(=O)N[C@@H](CC(=O)O)C(=O)O,i,0%
Cc1ccsc1C(=O)OCC(=O)Nc1c(C)n(C)n(-c2ccccc2)c1=O,i,-3%
CCOC(=O)CC(C(=O)OCC)P(=O)(c1ccccc1)c1ccccc1 (stereo not given),/,-18%
COc1ccc(C2(C(=O)N3CCCC3)CCOCC2)cc1OC,-1%,1%
COc1ccc2cc(C(=O)OC(C)C)sc(=O)c2c1OC,i,-5%
O=C(N/C(=C\c1ccc([N+](=O)[O-])cc1)C(=O)N1CCCCC1)c1ccccc1Br,-1%,-4%
C=C1CCN([C@@H](Cc2ccccc2)C(=O)NCCC(C)C)S(=O)(=O)c2ccccc21,-14%,-19%
COc1ccc(Cl)cc1-c1nc(SCC(N)=O)n[nH]1,i,-4%
CC(C)Cn1cc(-c2cncc3nccn23)cn1,31%[activator],-9%
Cc1ccc(N=Nc2c(=O)[nH]n3c(C)cc(C)nc23)cc1,-9%,-8%
O=C(NC(Cc1ccccc1)c1nc2ccccc2[nH]1)c1cccc([N+](=O)[O-])c1 (stereo not given),-27%,-2%
COc1cccc(/C=N/NC(=O)C(=O)Nc2ccccc2OC(F)(F)C(F)F)c1O,10µM*,?
CC1CCN(C(C)C(=O)Nc2ccccc2-c2ccccc2)CC1 (stereo not given),-13%,-8%
Cc1[nH]nc2c1C(c1ccc(O)cc1)C1=C(CC(C)(C)CC1=O)N2 (stereo not given),-17%,-24%
COc1ccc(CNC(=O)c2cc3cccc4c3n2CC(C)S4)cc1 (stereo not given),-17%,-7%
CN1CCN(S(=O)(=O)c2cccc(C(=O)Nc3sc4c(c3-c3nc5ccccc5[nH]3)CCCC4)c2)CC1,-10%,-15%
COc1nnc(-c2ccccc2)s1,-21%,-5%
CCCNC(=O)c1cc(-c2ccc3c(c2)OCO3)on1,-3%,-13%
COc1ccc(S(=O)(=O)N2CCC(C(=O)N[C@H](C(=O)NCc3ccccc3)C(C)C)CC2)cc1,i,-18%
CSCCC(N=C(NS(=O)(=O)c1ccccc1)c1ccccc1)C(=O)O (stereo not given),-2%,-5%
CCC[n+]1c2ccccc2cc2ccccc21,?,-6%
Cc1ccc(C(c2nc3ccccc3[nH]2)n2c(-c3ccccc3)nc3ccccc32)cc1 (stereo not given),i,-5%
COc1ccc(S(=O)(=O)Nc2ccccc2C)cc1,?,?
Cc1ccc(Cl)cc1NC(=O)C1CCCN(c2cnccn2)C1 (stereo not given),4%,-5%
Cc1ccc(C(=O)CC(C(=O)O)n2ccc(C)n2)cc1 (stereo not given),-9%,0%
Cc1nn(-c2ccccc2)c(N2CCCC2)c1/C=N/NC(=S)Nc1ccc(F)cc1,?,-13%
COc1ccc(OC)c(N=Cc2c(O)n(Cc3ccccc3)c(=S)[nH]c2=O)c1,-6%,3%
CC1CCCCN1C(=O)CCS(=O)(=O)c1cccc2nonc12 (stereo not given),6%,4%
CCc1cc(Br)ccc1NC(=O)C1CCCO1 (stereo not given),-10%,-6%
COc1ccc(-c2[nH]ncc2CN(C)CCCN2CCOCC2)cc1F,-9%,-12%
O=C(Nc1ccc(Cl)c(Cl)c1)Nc1cc(S(=O)(=O)N2CCOCC2)ccc1N1CCCC1,?,?
COc1ccc(C2CCCN2C(=S)Nc2c(C)cccc2C)cc1OC (stereo not given),-7%,6%
Cc1ccc(NCCCCO)cc1C,-17%,-11%
O=c1[nH]c(=O)n(Cc2ccco2)c(O)c1C=NCCN1CCNCC1,-7%,-7%
CCOc1ccc(S(=O)(=O)n2nnc3ccccc32)cc1C,12%,0%
CCOC(=O)c1ccc(S(=O)(=O)NC2CC2)cc1,-5%,0%
C/C(=N\NC(=O)Cc1ccc(F)cc1)c1ccc(F)cc1,-19%,-4%
CN(C)S(=O)(=O)c1cccc(C(=O)NC2CCSc3ccccc32)c1 (stereo not given),i,-7%
COCCn1c(=S)[nH]c2cc(C(=O)NC3CCCC(C)C3C)ccc2c1=O (stereo not given),-14%,?
Nc1nc(N2CCN(c3ccc(Cl)cc3)CC2)n[nH]1,-20%,-15%
O=S1(=O)CCC(NC(=S)N2CCOCC2)C1 (stereo not given),i,-14%
CC(=O)C[C@H](O)CC(=O)[C@H]1OC(=O)CCCCCCCCc2ccccc21,-19%,-8%
CN(c1ccc(C(=O)NCCSCc2ccccc2)cc1)S(=O)(=O)c1ccccc1,-17%[1.46 µM],-17%
CN(C)CC1CC/C(=C\c2ccc(O)cc2)C1=O (stereo not given),?,-20%
Cc1nn(-c2ccccc2)c2sc(C(=O)c3c(N)n(C)c(=O)n(C)c3=O)cc12,/,-12%

# 16 entries out of the list, sorted by count of non-hydrogen atoms, low to high.
SMILES,Vaccinia mCherry,Vaccinia Venus
Cc1ccc(NCCCCO)cc1C,-17%,-11%
CCC[n+]1c2ccccc2cc2ccccc21,?,-6%
CCOC(=O)c1ccc(S(=O)(=O)NC2CC2)cc1,-5%,0%
COc1ccc(S(=O)(=O)Nc2ccccc2C)cc1,?,?
Cc1ccc(C(=O)CC(C(=O)O)n2ccc(C)n2)cc1 (stereo not given),-9%,0%
C/C(=N\NC(=O)Cc1ccc(F)cc1)c1ccc(F)cc1,-19%,-4%
CCOc1ccc(S(=O)(=O)n2nnc3ccccc32)cc1C,12%,0%
COc1ccc(C2(C(=O)N3CCCC3)CCOCC2)cc1OC,-1%,1%
Cc1[nH]nc2c1C(c1ccc(O)cc1)C1=C(CC(C)(C)CC1=O)N2 (stereo not given),-17%,-24%
COc1ccc(CNC(=O)c2cc3cccc4c3n2CC(C)S4)cc1 (stereo not given),-17%,-7%
CSCCC(N=C(NS(=O)(=O)c1ccccc1)c1ccccc1)C(=O)O (stereo not given),-2%,-5%
CC(=O)C[C@H](O)CC(=O)[C@H]1OC(=O)CCCCCCCCc2ccccc21,-19%,-8%
O=C(NC(Cc1ccccc1)c1nc2ccccc2[nH]1)c1cccc([N+](=O)[O-])c1 (stereo not given),-27%,-2%
CN(c1ccc(C(=O)NCCSCc2ccccc2)cc1)S(=O)(=O)c1ccccc1,-17%[1.46 µM],-17%
Cc1ccc(C(c2nc3ccccc3[nH]2)n2c(-c3ccccc3)nc3ccccc32)cc1 (stereo not given),i,-5%
CN1CCN(S(=O)(=O)c2cccc(C(=O)Nc3sc4c(c3-c3nc5ccccc5[nH]3)CCCC4)c2)CC1,-10%,-15%

# New compounds follow:
SMILES,Vaccinia mCherry,Vaccinia Venus
COc1ccc(S(=O)(=O)N2CCCC(C(=O)Nc3ccc(NC(=O)c4ccccn4)cc3)C2)cc1 (stereo not given),-6%,-18%
COc1ccc(/C=C/c2onc(C)c2S(=O)(=O)N2CCC(C(=O)N3CCCCCC3)CC2)cc1,?,?
COC(=O)C1C(=O)c2c([nH]c(C(=O)OC3CCCC3C)c2C)CC1C (stereo not given),-18%,-6%
COc1ccc(N2C(=O)NC(NS(=O)(=O)c3ccc(Cl)cc3)(C(F)(F)F)C2=O)cc1 (stereo not given),-12%&-1%,5%&-1%
COc1cccc(CN2CCc3nc(SCC(=O)Nc4ccccc4)[nH]c(=O)c3C2)c1,-12%,-1%
O=C(Cn1cnc2scc(-c3ccccc3)c2c1=O)N1CCOCC1,-14%,7%
Cc1ccc(S(=O)(=O)N2CCN(C(=O)CN(Cc3ccco3)Cc3cccs3)CC2)cc1,-3%,-2%
CCOc1ccccc1NC(=O)CSc1nc(=O)n(CCN2CCOCC2)c2c1CCCC2,-22%,-9%
O=Cc1cn(-c2ccccc2)nc1-c1cc2ccccc2oc1=O,/,-7%
O=C1c2ccccc2C(=O)N1CCCCN(C(=O)c1cc2ccccc2oc1=O)c1ccc(F)cc1F,-28%,-20%
Cc1cc(=O)[nH]c(SCC(=O)Nc2ncc(S(=O)(=O)c3ccc([N+](=O)[O-])cc3)s2)n1,?,-6%
CCc1cccc(C)c1NC(=O)c1cc2ccccc2o1,i,-15%
CCn1c2ccccc2c2cc(NC(=O)CNCC3CCCO3)ccc21 (stereo not given),?,-23%
CCCCN(C)C(=O)c1ccc2c(c1)N(Cc1ccc(F)cc1)C(=O)c1ccccc1S2(=O)=O,i,-15%
CCOc1ccc(NS(=O)(=O)c2ccc(C(=O)N3CCCC3)cc2)cc1,-20%,-13%
CC(=O)c1ccc(N2CCN(c3nc4c(S(=O)(=O)c5ccc(C)c(C)c5)nnn4c4ccc(Cl)cc34)CC2)cc1,-1%,-16%
N#CC(C(O)c1ccccc1)N1CCOCC1 (stereo not given),-18%,-5%
CC(C)(C)c1ccc(OCC(O)CN2CCOCC2)cc1 (stereo not given),-15%,-14%
CCCCn1c(N)c(N(CCOC)C(=O)C2CCN(C(=O)c3ccc(F)cc3)CC2)c(=O)[nH]c1=O,-13%,-3%
CCCC[C@@H](CNC)NC[C@H](NCCCCC1CCCCC1)C(C)C,-25%,?
Cc1cc(OCc2nc(-c3cccnc3)no2)c(C)cc1Br,i,-12%
COc1cccc(NS(=O)(=O)c2ccc3c(c2)[C@H]2C=CC[C@H]2[C@@H](c2ccccc2Cl)N3)c1,-27%,-19%
CCc1c(C(C)=O)oc2ccc3c(C)cc(=O)oc3c12,31%[activator],-11%
COc1ccccc1C(=O)NC(=O)CSc1nncn1C(C)C,-9%,-3%
C#CCOCCOCCOCCNc1nc(N2CCN(C(=O)[C@H]([C@@H](C)CC)n3cc(CCCCN)nn3)CC2)nc(N2CCN(C(=O)[C@H](C)n3cc(CCC(=O)O)nn3)CC2)n1,i,-3%
Cc1ccc2c(=O)c(C(=O)c3cccc(Cl)c3)cn(CC(=O)NCc3ccccc3)c2n1,-5%,-2%
COc1ccccc1CCCNC(=O)C1CCC(=O)N(CCc2cccc(F)c2)C1 (stereo not given),-10%,-22%
CCN(CC)P(=O)(c1nccn1C)N(CC)CC,i,-13%
Cc1ccc(C)c(-n2ccnc2SCC(=O)O)c1,-12%,-8%
Cc1ccc(C(=O)COc2ccccc2C(=O)Nc2ccccc2)cc1,i,-3%
COc1ccc(C(=O)Nc2ccnn2C2CCN(C(=O)C3CCOC3)CC2)cc1 (stereo not given),i,-6%
CC(=O)N(Cc1cc(=O)[nH]c2ccccc12)c1ccccc1,-24%,-17%
CCCNc1nc(C)nc2c1cnn2CCc1ccccc1,-12%,-21%
O=C(Nc1ncccc1O)C1CCN(S(=O)(=O)c2ccc3ccccc3c2)CC1,-11%,-18%
CC1(C)CC(=O)C(N=Nc2ccc3ncsc3c2)=C(O)C1,-10%,-5%
COc1ccc(CCNC(=O)Cn2nnc(C(=O)Nc3cc(C)ccc3C)c2N)cc1OC,-5%,-17%
CC1CN(c2ncc(/C=N/NC(=O)c3ccccc3O)s2)CC(C)O1 (stereo not given),-17%,-12%
CC(=O)Nc1c(C)nn(-c2ccccc2)c1N1CCC(C(=O)Nc2cccc(C(F)(F)F)c2)CC1,2%[7.34 µM],-2%[7.34 µM]
COc1ccccc1N1CCN(c2nc(C)cc(C)c2C#N)CC1,-10%,-3%
COc1ccc(OC)c(NC2c3ccccc3C(=O)N2Cc2ccc3c(c2)OCO3)c1 (stereo not given),-14%,-14%
COc1ccccc1C(=O)Nc1nnc(SCc2cc(=O)n3ccc(C)cc3n2)s1,i,-5%
O=c1c2sc3ccccc3c2n(Cc2cccc(C(F)(F)F)c2)c(=O)n1Cc1ccc(F)cc1,-25%,-20%
CC(NC(=O)c1cccc(Cl)c1)C1CC2CCC1C2 (stereo not given),-9%,-9%
Oc1nc(Nc2ccc(F)cc2)sc1/C=C1\C=Nc2ccccc21,-15%,-19%
O=C(Nc1ccccc1C(=O)O)c1cccc(C(=O)Nc2ccccc2C(=O)O)c1,i,6%
COc1ccccc1CC(=O)Nc1ccc(OC)c(OC)c1,-8%[1.46 µM],-7%
CCc1noc(C)c1C(=O)N1CCN(S(=O)(=O)c2ccc(C(C)C)cc2)CC1,-13%,-3%
CCOC(=O)c1cc(C)n(-c2ccc(Cl)cc2)c1C,i,6%
COc1ccc(Cl)cc1NC(=O)c1cccc(N2C(=O)C3CC=CCC3C2=O)c1 (stereo not given),i,-22%
CCCc1nc2ccccc2c(=O)n1/N=C/c1ccc(O)cc1,/,?
Cc1nn(C(=O)c2ccc(Br)cc2)c(C)c1S(=O)(=O)N1CCOCC1,11%,4%
CCOc1ccc(NC(=O)CN(c2ccc(OC)cc2)S(C)(=O)=O)cc1,/,-10%
NC(=O)CN1C(=O)C2C3C=CC(C3)C2C1=O (stereo not given),i,-17%
O=C(NNC(=O)c1ccc(-c2ccccc2)cc1)Nc1ccccc1F,-11%,-7%
CCC(NC(=O)c1ccccc1NC(=O)c1ccco1)C(=O)NC1CCCCC1 (stereo not given),-10%,-16%
CCO[C@@H]1OC(C(=O)N2CCN(Cc3ccccc3)CC2)=C[C@H](C)[C@H]1CCCO,-1%,2%
O=C(NC(=S)Nc1ccc(N2CCOCC2)cc1)c1cccc(Cl)c1Cl,?,-7%
CCC(=O)N1c2ccccc2CC1C(=O)NCCc1ccc(OC)c(OC)c1 (stereo not given),1%,-5%

# Screening data (PubChem)
